EPAC1 ag val: Validation qHTS for agonist of cAMP-regulated guanine nucleotide exchange factor 3 (EPAC1); 1% of 16,000 active; EPAC1 Rap1b BODIPY-GDP exchange, fluorescence; Potency, µM, for the others: max response, positive = active, hits mostly activators; AID 1645883, 2021; active = well fitted activation curve with a large enough effect; inconclusive = small, poorly fitted or top-dose-only effect; inactive = no such curve, though single readings can be large or run the other way;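 also: nearly all actives have a fitted effect of over 70% in size; series mostly up to about 76 or 150 µM; scaled to a cAMP control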
Target sequence (O95398 whole entry, looked up): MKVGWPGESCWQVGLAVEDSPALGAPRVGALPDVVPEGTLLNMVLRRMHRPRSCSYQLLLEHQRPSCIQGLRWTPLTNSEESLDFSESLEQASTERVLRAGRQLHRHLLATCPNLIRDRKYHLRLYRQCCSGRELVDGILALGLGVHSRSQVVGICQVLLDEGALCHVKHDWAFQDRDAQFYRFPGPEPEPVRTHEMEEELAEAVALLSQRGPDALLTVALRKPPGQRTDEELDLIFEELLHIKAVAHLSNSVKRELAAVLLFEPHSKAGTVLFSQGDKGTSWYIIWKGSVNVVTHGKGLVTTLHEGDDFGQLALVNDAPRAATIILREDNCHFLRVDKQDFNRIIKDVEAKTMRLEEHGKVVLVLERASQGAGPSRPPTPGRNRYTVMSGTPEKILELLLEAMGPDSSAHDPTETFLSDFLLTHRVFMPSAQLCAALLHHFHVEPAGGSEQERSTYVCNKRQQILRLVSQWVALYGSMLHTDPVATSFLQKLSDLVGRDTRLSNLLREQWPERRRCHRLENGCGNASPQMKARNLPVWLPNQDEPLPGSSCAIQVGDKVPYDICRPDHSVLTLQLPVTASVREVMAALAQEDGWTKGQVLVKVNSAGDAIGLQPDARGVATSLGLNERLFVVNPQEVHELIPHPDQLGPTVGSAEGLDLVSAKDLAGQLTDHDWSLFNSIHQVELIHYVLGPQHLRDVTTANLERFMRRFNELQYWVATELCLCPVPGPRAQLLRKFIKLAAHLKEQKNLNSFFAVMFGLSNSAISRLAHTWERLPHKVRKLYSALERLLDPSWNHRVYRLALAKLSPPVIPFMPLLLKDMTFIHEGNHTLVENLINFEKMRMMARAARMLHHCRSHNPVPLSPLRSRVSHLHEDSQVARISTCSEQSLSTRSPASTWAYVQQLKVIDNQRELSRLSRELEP
* = called active by the depositor; ? = inconclusive; & = joins results of further samples; [ ] = remark or other dose. % is scaled to controls: 0 for no effect and ±100 for the full control effect; potency is read from the fitted curve at half-maximal effect.

SMILES	EPAC1 ag val
COc1ncc2nc(C)c(=O)n(C)c2n1	-82.8%[inhibitor]
CCCCC[C@H](O)/C=C/C1=C(CCCCCCC(=O)O)C(=O)CC1	-8.8%
CN1CCN(CCc2ccc(Cl)c(Cl)c2)CC1	6.7%
O=C(O[C@H]1[C@H](Cc2ccccc2)NS(=O)(=O)[C@H]2C[C@@H]3C=C[C@]12O3)c1ccccc1Br	?
Cc1noc(C)c1C(=O)N1CCC2(CC1)CCN(C(c1ccccc1)c1ccccc1)CC2	15.2%
Cc1c(N(C)CS(=O)(=O)O)c(=O)n(-c2ccccc2)n1C	-9.8%&-19.3%
CN1CCN(c2ccnc(-c3cccc(NS(C)(=O)=O)c3)n2)CC1	-17.9%
CC1(C)OC(=O)C=C[C@@]2(C)C1C[C@@H](O)[C@]1(C)C2CC[C@@]2(C)C(c3ccoc3)OC(=O)[C@H]3O[C@]321 (stereo not given in full)	-19.0%
C[N+]1(C)C2CC(OC(=O)C(CO)c3ccccc3)CC1C1OC12 (stereo not given)	-3.6%
CN1CCN(c2ncc3nc(-c4cn(C)c5ccccc45)c(=O)n(Cc4cccs4)c3n2)CC1	?
COC(=O)C1=C(C)NC(C)=C([N+](=O)[O-])[C@H]1c1ccccc1C(F)(F)F	-14.7%
COc1cccc(CN2CCC3(CCC(CNC(=O)c4ccco4)O3)CC2)c1OC (stereo not given)	4.9%
CCCCCCc1ccc(N2C[C@H](Cc3ccccc3)[C@@H](CC(=O)Nc3ccccc3)C2=O)cc1	?
O=C(O)C1(O)C[C@H](O)C(O)[C@@H](O)C1 (stereo not given in full)	-13.6%
C=C[C@@H]1c2cc(C)ccc2N(S(=O)(=O)c2ccc(C)cc2)[C@H](c2ccc(C(=O)OC)cc2)C1(C#N)C#N	25.8%
CN(C)c1ccc(/C=C/c2c3c(nc4ccccc24)CCCC3)cc1	100µM*
CCn1c(-c2ccccc2F)nc2cc(NC(C)=O)cc(C(=O)N(C)Cc3ccc4nccnc4c3)c21	-1.3%
O=c1c(-c2ccc(F)c(F)c2)nc2cncnc2n1Cc1ccccc1	-54.4%[inhibitor]
O=[N+]([O-])c1ccc(CSc2ncnc3c2ncn3[C@@H]2O[C@H](CO)[C@@H](O)[C@H]2O)cc1	-2.9%
CC1CCN(CC[C@H]2CCCN2S(=O)(=O)c2cccc(O)c2)CC1	-7.4%&6.0%
COc1ccc(-n2c(=O)c(-c3cccs3)nc3cnc(Oc4ccccc4)nc32)cc1	?
Cc1cccc(CNc2ncncc2-c2cccc(C#N)c2)c1	13.9%
COCC(=O)N1CCC2(CCCN(Cc3ccccc3OC)C2)CC1	?
Cc1ccc2c(c1)C(=O)C1(O)CCN(c3ccccc3)C1=N2 (stereo not given)	-21.3%
COC(=O)[C@@H]1CCCN1C(=O)c1cc(NC(=O)c2ccccc2)cc2ncn(C3CCCC3)c12	5.7%
CC(C)c1c(O)ccc2c1CCC1[C@@](C)(C=O)CCC[C@@]21C (stereo not given in full)	10.2%
Cc1ccc(C)c(C(=O)N2CCC(C3(c4ccccn4)NC(=O)N(CC4CCCO4)C3=O)CC2)c1 (stereo not given)	18.3%
O=C1O[C@H]([C@@H](O)CO)C(O)=C1O	?
COCCn1c(=O)c(C)nc2cnc(N3CCN(C)CC3)nc21	-8.3%
Clc1ccccc1-c1cncnc1NCCN1CCOCC1	-17.8%
CN(C)CCOC(c1ccc(Cl)cc1)c1ccccn1 (stereo not given)	-2.1%&1.0%
COC(=O)c1cc(OC)c(=O)c2c(OC)c(OC)ccc2c1	-28.2%
CC(=O)Nc1c(I)cc(I)c(C(=O)O)c1I	-8.4%
C[C@H]1COc2c(C3(N)CC3)c(F)cc3c(=O)c(C(=O)O)cn1c23	13.0%
CN(C)c1ccc(N2[C@@H](CC(=O)O)c3cc(C(F)(F)F)ccc3S2(=O)=O)cc1	-15.3%
CCC(=O)Nc1ccc(O)cc1	-4.3%
COc1ccc(C2(C#N)CCC(C(=O)O)CC2)cc1OC1CCCC1 (stereo not given)	-3.4%
O=c1c(CCc2ccccc2)nc2cnc(Oc3cccc(Cl)c3)nc2n1C[C@H]1CCCO1	-18.7%
CCC1CN(CCC(=O)N2CCN(c3ncccn3)CC2)Cc2cc(OC)ccc2O1 (stereo not given)	-18.0%
COc1ccc(-n2c(=O)c(-c3ccccc3)nc3cnc(N4CCN(C)CC4)nc32)cc1	-31.5%[inhibitor]
CC(C)CCCC(C)C1CCC2C3CC=C4CC(O)CCC4(C)C3CCC12C (stereo not given)	-14.9%
N#Cc1cccc(NC(=O)N2CCCC3(CCN(C(=O)c4csnn4)CC3)C2)c1	-42.5%[inhibitor]
CC(C)NC(=O)N1CCC2(CC1)CCN(C(=O)c1ccco1)CC2	-46.6%
CN1CCC2(CC1)CCN(C(=O)c1cc(C(F)(F)F)cc(C(F)(F)F)c1)CC2	17.6%
CCCn1c(=O)c2[nH]c(-c3ccccc3)nc2n(CCC)c1=O	-6.2%&5.8%
Cc1ncc2c(c1CNC(=O)c1ccccc1F)CCN(C(=O)c1ccc3c(c1)OCCO3)C2	-2.0%
CS(=O)(=O)Nc1cccc(-c2ccc3ncnc(N4CCOCC4)c3c2)c1	?
COc1cccc(-c2nc(NCCNC(C)=O)c3ccccc3n2)c1	-2.9%
COc1ccccc1-c1ccnc(-n2ncc(C(=O)NCCc3ccccn3)c2C)n1	10.9%
COC(=O)[C@H]1[C@@H]2C[C@@H]3c4[nH]c5ccccc5c4CCN3C[C@H]2CC[C@H]1O	-3.3%

Reprinted from the part before: 2 entries, then new ones.
SMILES	EPAC1 ag val
COc1ccccc1-c1ccnc(-n2ncc(C(=O)NCCc3ccccn3)c2C)n1	10.9%
COC(=O)[C@H]1[C@@H]2C[C@@H]3c4[nH]c5ccccc5c4CCN3C[C@H]2CC[C@H]1O	-3.3%
CCOC(=O)C(C)(C)Oc1ccc(Cl)cc1	-5.1%&-6.0%&-4.2%
CCCCCCC(=O)OC1CC(C)(C)NC(C)(C)C1	10.1%
O=C(Nc1ccccc1)N1CCC2(CC1)CCN(S(=O)(=O)c1ccccc1)CC2	21.3%
Cc1c(C(=O)NCC2COCCO2)cnn1-c1nccc(-c2cccs2)n1 (stereo not given)	-4.5%
COc1ccc(CNc2ccnc(-c3ccoc3)n2)c(OC)c1	-12.8%
CO[C@H]1[C@H](NC(=O)c2ccsc2)c2ccccc2C12CCN(Cc1ccc3c(c1)OCO3)CC2	-9.7%
Oc1cc(O)c2c(c1)O[C@H](c1ccc(O)c(O)c1)[C@@H](O)C2	-7.4%&4.2%
CC1(C)S[C@@H]2C(C(=O)OCc3ccccc3)NC(=O)N2C1C(=O)OCc1ccccc1 (stereo not given in full)	-1.2%
C=C1c2c(Cl)ccc(O)c2C(O)=C2C(=O)[C@]3(O)C(O)=C(C(N)=O)C(=O)[C@@H](N(C)C)[C@@H]3[C@@H](O)[C@H]12	-18.9%
Cc1cc2c(cc1C)N[C@]1(C[C@H]3CCCC(=O)N4CC[C@@H](C1)[C@@H]34)C(=NCc1ccccc1)N2	-12.2%
CCNc1ncc2nc(-c3ccccc3)c(=O)n(C3CC3)c2n1	-46.7%[inhibitor]
O=C1C[C@@H]2c3c(cccc3CN1Cc1ccc(Br)cc1)C[C@@H](O)[C@H]2O	24.1%
COc1cc2c(cc1OC)C1N(CC2)C(=O)CCC12C(=O)CCCC2=O (stereo not given)	-14.3%
N#CC(C#N)=C(N)/C(C#N)=C/c1ccc2[nH]ccc2c1	-11.0%&-7.4%
COc1cccc(-c2cc3c(c(OC)c2)OCCN(Cc2ccccc2O)C3)n1	-6.7%
NC[C@H](O)c1ccc(O)c(O)c1	3.2%&-15.2%&-15.8%
CC(=O)Oc1ccc2c(c1C(C)C)CCC1C(C)(C)CCC[C@@]21C (stereo not given in full)	100µM*
CCn1nc(C)cc1C(=O)NCC1Cc2cc(C)cc(-c3ccccc3C(=O)OC)c2O1 (stereo not given)	-2.0%
CCCCC/C=C\C/C=C\C/C=C\C/C=C\CCCC(=O)O	-16.6%&-25.0%&-158.3%
CCN1CCCC1CNC(=O)c1cnn(-c2nccc(-c3cc(OC)ccc3OC)n2)c1C (stereo not given)	8.6%
COC(=O)C1CCN(Cc2ccc3c(c2)CN(C(=O)c2sc(C)nc2C)CCO3)CC1	-10.7%
CSCC[C@H](C=O)NC(=O)[C@H](CC(C)C)NC(=O)[C@H](CC(C)C)NC(C)=O	-13.4%
NC(=O)C(=O)O	0.2%
COc1cc2c(cc1O)CCN[C@]21CS[C@@H]2c3c(OC(C)=O)c(C)c4c(c3[C@H](COC1=O)N1[C@@H]2[C@H]2c3c(cc(C)c(OC)c3O)C[C@@H]([C@@H]1O)N2C)OCO4	-45.3%&-43.5%[inhibitor]
Cn1cccc1C(=O)N1CCC2(CC1)CCN(c1ccc(-c3ccccc3)cc1)CC2	-68.5%[inhibitor]
Oc1c(I)cc(I)c2cccnc12	?
COc1cc2c(CCNC(C)=O)c[nH]c2cc1Cl	-3.8%&-7.6%&-17.5%
NC1C=CC=C(C(=O)O)C1 (stereo not given)	12.0%&-6.6%
COC(=O)CCCOc1ccc(Cl)cc1Cl	12.2%
CCNc1ncc2nc(-c3ccc(F)cc3)c(=O)n(CCOC)c2n1	-26.1%
O=[N+]([O-])c1ccc2c(c1)C=CC2	29.9%
CC(C)C[C@H](CO)N(Cc1ccccc1)S(=O)(=O)N(Cc1ccccc1)[C@@H](CO)CC(C)C	-74.4%[inhibitor]
COCCn1c(=O)c(-c2cc(F)cc(F)c2)nc2cnc(OC)nc21	-71.9%[inhibitor]
CC[C@]1(c2ncc[nH]2)Cc2ccccc2O1	5.9%
CC(C)CN1CCC(=O)N(CCN=[N+]=[N-])CC1	6.2%
CCCCCCCCCCCCCCCCCC(=O)OCCO	-184.4%[inhibitor]
Cc1c(C(=O)NCC(C)(C)N2CCOCC2)cnn1-c1nccc(-c2cccs2)n1	-11.2%
CC(=O)ON(C(C)=O)S(=O)(=O)c1ccc(Cl)cc1	-20.9%
COc1cccc(Cn2c(=O)c(-c3cc(F)cc(F)c3)nc3cnc(N4CCNCC4)nc32)c1	?
c1csc(CNc2nc(-c3ccc4c(c3)OCO4)nc3ccccc23)c1	?
C[C@]12CCC(=O)C=C1[C@@H]1C[C@@H]1[C@H]1[C@@H]3[C@@H]4C[C@@H]4[C@@]4(CCC(=O)O4)[C@@]3(C)CC[C@@H]12	13.3%
COCc1ccc(CN2CCOc3c(cc(-c4cc(C)c5cccc(OC)c5n4)cc3OC)C2)o1	6.1%
CCc1cccc2c3c([nH]c12)C(CC)(CC(=O)O)OCC3 (stereo not given)	-4.6%&-0.5%&-32.7%
N#Cc1ccc(CN2CCCC3(CCN(C(=O)c4ccco4)CC3)C2)cc1	-6.8%
Cc1cccc(C)c1NC(=O)CN1CCN(CCCC(c2ccc(F)cc2)c2ccc(F)cc2)CC1	7.6%
COc1ccc2[nH]cc(CCNc3cc(-c4ccc5c(c4)OCO5)ncn3)c2c1	?
COCCN1CCN(C(=O)c2cnn(-c3nccc(-c4ccccc4F)n3)c2-c2ccco2)CC1	-2.8%
COc1cccc(Nc2ncc3nc(-c4cccs4)c(=O)n(Cc4cccs4)c3n2)c1	?
COC(=O)C1=C(C(=O)OC)[C@]2([C@H]3C/C=C\CN[C@@H](Cc4ccccc4)C(=O)N3Cc3ccccc3)C=C[C@H]1O2	27.5%
COc1ccc(CNc2nc(-c3cccc(NS(C)(=O)=O)c3)nc3ccccc23)c(OC)c1	?

4 records drawn at random from those above:
SMILES	EPAC1 ag val
COc1ccc2[nH]cc(CCNc3cc(-c4ccc5c(c4)OCO5)ncn3)c2c1	?
COC(=O)C1=C(C(=O)OC)[C@]2([C@H]3C/C=C\CN[C@@H](Cc4ccccc4)C(=O)N3Cc3ccccc3)C=C[C@H]1O2	27.5%
C[C@]12CCC(=O)C=C1[C@@H]1C[C@@H]1[C@H]1[C@@H]3[C@@H]4C[C@@H]4[C@@]4(CCC(=O)O4)[C@@]3(C)CC[C@@H]12	13.3%
COCCN1CCN(C(=O)c2cnn(-c3nccc(-c4ccccc4F)n3)c2-c2ccco2)CC1	-2.8%

Later entries.
SMILES	EPAC1 ag val
N=C(N)SCCc1ccc(OCc2ccc([N+](=O)[O-])cc2)cc1	-2.5%
COC1C[C@@H](O[C@@H]2C(C)C(=O)OC(C)C(C)[C@H](OC(C)=O)C(C)C(=O)[C@@]3(CO3)CC(C)C(OC3OC(C)CC(N(C)C)[C@H]3OC(C)=O)C2C)OC(C)[C@@H]1OC(C)=O (stereo not given in full)	-41.0%[inhibitor]
COc1ccccc1C(=O)N1CCOc2ccc(CN3CCN(Cc4ccccn4)CC3)cc2C1	14.4%
CCNc1ncc2nc(-c3ccc(OC)cc3)c(=O)n(Cc3cccc(OC)c3)c2n1	-54.6%[inhibitor]
CC(=O)[C@@]1(O)CC[C@H]2[C@@H]3C[C@H](C)C4=CC(=O)C=C[C@]4(C)[C@@]3(F)[C@@H](O)C[C@@]21C	-8.5%
COc1ccccc1CNc1cc(-c2ccccc2C)ncn1	1.5%
NC(N)=NC(N)=Nc1ccccc1	4.2%&23.4%&-13.9%&-2.4%
C[C@@H](NCCCc1cccc(C(F)(F)F)c1)c1cccc2ccccc12	-17.0%
COc1ccc(OC)c(C(=O)N(Cc2cc3cccc(C)c3nc2N2CCC(O)CC2)C2CC2)c1	10.9%
O=C1C[C@H]2C=CCc3cccc(c32)CN1Cc1ccc(Cl)cc1	?
COc1ncc2nc(-c3cn(C)c4ccccc34)c(=O)n(C[C@H]3CCCO3)c2n1	0.3%
O=C(Nc1cccc(F)c1)N1CCCC2(CCN(C(=O)c3cnccn3)CC2)C1	-16.2%
COc1ccc(Oc2ncc3nc(-c4ccccc4)c(=O)n(Cc4cccs4)c3n2)cc1	?

Compounds listed so far containing bromine, in the order listed:
SMILES	EPAC1 ag val
O=C(O[C@H]1[C@H](Cc2ccccc2)NS(=O)(=O)[C@H]2C[C@@H]3C=C[C@]12O3)c1ccccc1Br	?
O=C1C[C@@H]2c3c(cccc3CN1Cc1ccc(Br)cc1)C[C@@H](O)[C@H]2O	24.1%

Assay outcomes as filed in PubChem.

Only part of the results is shown (hit frequency here may not be typical).
